CSC inhib: blocks cancer stem cells; cancer stem cell-like cells viability, luminescence; inhibition, % at 7.5 µM; actives 1.1% (n = 300,000); AID 2717;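 active = mean at 75% or more and at least half the replicates too; tested in HMLE shEcad cells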;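 also: 0% = median of negative and 100% = median of positive control wells; the first replicate is given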
Yeast UUG start: alters start codon recognition fidelity in yeast; S. cerevisiae UUG-firefly luciferase reporter, luminescence/redox ratio; activity score, % at 18.7 µM; actives 0.13% (n = 350,000); AID 602363;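 active = replicate mean at a twofold rise or more, about +100% in these data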;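 also: firefly luciferase made from a UUG start codon reports start codon fidelity; reporter light over untreated wells divided by growth signal over untreated wells; some hits fall short of that in this replicate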
MT1-MMP act inh: inhibitors of human MT1-MMP activation; GFP/RFP ratio change, % at 20 µM; actives 0.061% (n = 360,000); HT1080 RFP-PRO-GFP cells, GFP/RFP ratio fluorescence, overnight; percent of plate control window, DMSO zero;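 active = GFP/RFP ratio change of at least 30% with cell ATP level not reduced by more than half and red fluorescence within 50% of control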; also: strong numbers were not always called active
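Assay system: HT1080 cells carrying an RFP-PRO-GFP reporter | Dosing: Single dose of 20 µM compound, 1% DMSO final | Incubation: Cells overnight before dosing, compound overnight, 37 °C, 5% CO2 | Evaluation: GFP/RFP fluorescence ratio | Control set: DMSO and RFP-L50D-GFP cell wells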
PABP FP inh: blocks human PABP binding to poly(A) RNA; fluorescence polarization; inhibition, % at 35 µM; P11940; actives 1% (n = 290,000);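 active = 50% or more with normal probe brightness, or confirmed in later tests; about a fifth of its hits are not listed in these tables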;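 also: calls also rest on retests at 20 µM and on dose response follow-up; controls were probe without protein and protein plus probe with vehicle; some compounds called inactive have numbers as strong as hits; many hits fall short of the cut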
Target sequence (P11940 whole entry, looked up): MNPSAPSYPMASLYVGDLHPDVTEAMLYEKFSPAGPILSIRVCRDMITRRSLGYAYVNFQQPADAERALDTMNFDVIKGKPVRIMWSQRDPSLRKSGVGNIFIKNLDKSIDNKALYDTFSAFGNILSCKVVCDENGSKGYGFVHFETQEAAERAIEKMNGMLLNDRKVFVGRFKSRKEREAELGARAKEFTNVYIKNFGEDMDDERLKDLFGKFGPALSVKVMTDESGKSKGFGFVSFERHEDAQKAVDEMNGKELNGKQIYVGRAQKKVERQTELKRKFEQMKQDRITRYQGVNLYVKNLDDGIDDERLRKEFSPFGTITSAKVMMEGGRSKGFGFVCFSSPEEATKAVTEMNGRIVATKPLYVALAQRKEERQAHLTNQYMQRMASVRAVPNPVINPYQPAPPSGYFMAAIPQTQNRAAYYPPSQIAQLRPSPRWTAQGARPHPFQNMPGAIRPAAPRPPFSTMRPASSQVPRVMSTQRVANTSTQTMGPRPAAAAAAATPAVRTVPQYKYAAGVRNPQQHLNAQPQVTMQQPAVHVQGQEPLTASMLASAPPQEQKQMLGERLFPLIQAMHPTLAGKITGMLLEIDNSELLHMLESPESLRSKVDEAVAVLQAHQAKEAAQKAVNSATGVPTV
HIV Env fusion: blocks HIV Env-driven cell-cell fusion | AID 651610 | actives 1.1% (n = 360,000) | HeLa-JRFL Env/CEM21 cell fusion, luciferase | inhibition, % at 12.3 µM;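 active = mean replicate inhibition score of at least 50 and every replicate individually at or above 50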;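 also: 0% = plate neutral controls and 100% = maraviroc near 300 nM; one replicate is shown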
Rce1 inh: yeast Ras-converting enzyme inhibition; Q03530; yeast membranes, quenched prenylated peptide cleavage fluorescence; calls only; actives 0.27% (n = 290,000); AID 2563;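 active = fall in fluorescence gain of 50% or more versus controls, with final raw signal at or below 3038400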;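 also: plate controls were neutral control wells for no effect and wells lacking membranes for full effect; tested at 10 µM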
Target sequence (Q03530 whole entry, looked up): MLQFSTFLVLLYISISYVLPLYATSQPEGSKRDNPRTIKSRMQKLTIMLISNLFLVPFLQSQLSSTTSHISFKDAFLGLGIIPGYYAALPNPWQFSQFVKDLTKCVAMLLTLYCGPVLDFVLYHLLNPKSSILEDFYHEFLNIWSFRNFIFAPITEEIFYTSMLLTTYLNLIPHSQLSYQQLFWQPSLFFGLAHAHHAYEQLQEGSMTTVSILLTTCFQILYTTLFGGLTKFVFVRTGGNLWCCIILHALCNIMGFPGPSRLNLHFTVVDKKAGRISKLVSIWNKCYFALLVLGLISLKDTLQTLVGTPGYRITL
eIF4H inh: inhibitors of RNA binding by human eIF4H | Q15056 | eIF4H fluorescence polarization binding assay | inhibition, % at 35 µM | actives 0.94% (n = 290,000) | AID 2012;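 active = 50% or more with normal probe brightness, or confirmed in later tests; about a fifth of its hits are not listed in these tables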;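 also: calls also rest on retests at 20 µM and on dose response follow-up; 0% = protein and probe with vehicle and 100% = probe without protein; strong numbers were not always called active; many hits fall short of the cut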
eIF4H inh retest: recorded beside eIF4H inh, whose call it bears; inhibition, %; compound at 20 µM; confirmation average;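 mean of two retest wells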
PABP FP inh retest: also measured in PABP FP inh; calls as there; inhibition, %; compound at 20 µM; confirmation repeats;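 mean of two retest wells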
MT1-MMP act inh RFP: recorded beside MT1-MMP act inh, whose call it bears; RFP signal change, %; measured here: RFP expression control read;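 0 = vehicle wells; hits needed this value within 50% of zero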
* hit, by the source's call; i = inactive; nt = not tested or not shown.

SMILES | CSC inhib | Yeast UUG start | MT1-MMP act inh | MT1-MMP act inh RFP | PABP FP inh | HIV Env fusion | Rce1 inh | eIF4H inh | others
CN(C)CC(O)COC(c1ccccc1)c1ccccc1 (stereo unspecified) | -13 | -16 | 5 | 0 | -6 | 3 | i | 5
CC1CCC(C(=O)NC(C(=O)NCCc2ccc(S(N)(=O)=O)cc2)C(C)C)CC1 (stereo unspecified) | -8 | 0 | -6 | -6 | 5 | 8 | i | -10
Cn1c(SCC(=O)NC2CCCCC2)nc2c(c1=O)SCC2 | nt | -5 | 2 | -3 | nt | -4 | nt | nt
COc1ccc(N2CCCC2)c(NC(=O)COc2ccccc2Cl)c1 | 7 | -9 | -5 | -4 | -1 | 12 | i | -15
Cc1sc2nc(C)n(/N=C/c3ccccc3O)c(=O)c2c1C | 1 | -10 | 4 | 4 | 1 | -71 | i | 6
O=C(NC1CCN(Cc2ccccc2)CC1)c1ccc2c(c1)[nH]c(=O)n2Cc1ccc(F)cc1 | 5 | nt | -3 | -15 | -27 | 42 | i | -8
O=C(NNC(=O)C1CCN(c2ncccn2)CC1)c1ccncc1 | -8 | nt | -1 | 5 | -3 | 0 | i | 0
CC(=O)N[C@H]1C[C@@H]1c1ccccc1 | -12 | -11 | 7 | 1 | -3 | nt | i | -5
CCOC(=O)Nc1csnn1 | nt | -5 | 1 | -2 | 7 | 15 | i | -5
CCCCOc1ccc(/C=N/Nc2cc(N3CCOCC3)nc(C)n2)cc1 | 58 | -5 | 2 | -2 | 7 | 17 | i | 4
CCCc1cc(=O)n2c([nH]c3ccccc32)c1C#N | 35 | 0 | -3 | -11 | -5 | nt | i | 2
Cc1ccc(CSc2nnc(-c3ccc(NS(=O)(=O)c4ccccc4)cc3)o2)cc1 | 49 | nt | -2 | -3 | -4 | -15 | i | -9
COc1ccc(N2CCN(CCCNC(=O)Cn3c(=O)c4cccn4c4cccnc43)CC2)cc1 | 4 | 8 | -3 | -1 | 5 | -4 | i | 9
Cc1nn(-c2ccccc2)c(C)c1CCC(=O)O | -9 | 15 | -2 | -6 | 1 | -127 | i | -4
COC(=O)CN(c1cc(Cl)ccc1OC)S(=O)(=O)c1ccc(C)cc1 | 31 | nt | 0 | -6 | 1 | -15 | i | -9
COc1ccc(-c2nc(C#N)c(N3CCOCC3)o2)cc1OC | 15 | -8 | 0 | 1 | -13 | nt | i | -10
O=C(COc1cccc2cccnc12)N/N=C/c1cccn1-c1ccc(F)cc1 | 3 | nt | 1 | -4 | 13 | 8 | i | -8
CCCCCCCC(=O)Nc1ccc(S(=O)(=O)Nc2nccs2)cc1 | -9 | nt | 3 | 1 | 73 | -2 | i | -1 | eIF4H inh retest=-6;PABP FP inh retest=2
O=C(Nc1ccccc1)c1ccc(-c2ccc(F)cc2)s1 | 1 | nt | 5 | 9 | -2 | -192 | i | 10
c1ccc(Cc2nnc(-c3ccccc3)o2)cc1 | -8 | -15 | 8 | 7 | 4 | -74 | i | 3
CC(C)Oc1ccc(Cc2c(O)nc(NCCCN(C)C)[nH]c2=O)cc1 | nt | -17 | 3 | 4 | 3 | nt | i | 9
O=C(OCc1ccc(Br)cc1)c1cnc(Cl)c(Cl)c1 | nt | nt | -2 | -1 | -1 | -9 | i | -7
COc1cc(/C=N/NC(=O)c2cccc([N+](=O)[O-])c2)ccc1OC(=O)c1ccco1 | -9 | nt | 5 | 3 | -14 | -15 | i | 2
CN(Cc1ccccc1)C(=O)N1CCOCC1 | -7 | -10 | 0 | 1 | -5 | -2 | i | -6
Cc1cccc(C(=O)N2CCN(c3ccc(C(F)(F)F)cn3)CC2)c1C | 0 | nt | -2 | -21 | -4 | nt | i | 0

Sorted by SMILES length (ascending): part of the list above
SMILES | CSC inhib | Yeast UUG start | MT1-MMP act inh | MT1-MMP act inh RFP | PABP FP inh | HIV Env fusion | Rce1 inh | eIF4H inh | others
CCCc1cc(=O)n2c([nH]c3ccccc32)c1C#N | 35 | 0 | -3 | -11 | -5 | nt | i | 2
Cc1ccc(CSc2nnc(-c3ccc(NS(=O)(=O)c4ccccc4)cc3)o2)cc1 | 49 | nt | -2 | -3 | -4 | -15 | i | -9
COc1cc(/C=N/NC(=O)c2cccc([N+](=O)[O-])c2)ccc1OC(=O)c1ccco1 | -9 | nt | 5 | 3 | -14 | -15 | i | 2

(cont.)
SMILES | CSC inhib | Yeast UUG start | MT1-MMP act inh | MT1-MMP act inh RFP | PABP FP inh | HIV Env fusion | Rce1 inh | eIF4H inh | others
CCOC(=O)c1ccc(NC(=O)CCc2nc(-c3ccccc3Cl)no2)cc1 | 33 | -17 | -6 | -15 | 2 | -19 | i | 9
Cc1cnc(C(=O)OCC(=O)Nc2ccccc2[N+](=O)[O-])cn1 | 2 | -5 | -1 | 2 | nt | 19 | nt | nt
Cn1c(SCC(=O)NCc2cccs2)nnc1-c1ccc(O)cc1 | -6 | nt | 3 | 4 | 3 | 5 | i | 10
CCN(CC)S(=O)(=O)c1ccc(S(=O)(=O)N2CCCC2C(=O)O)cc1 (stereo unspecified) | nt | -7 | -2 | 0 | 9 | nt | nt | -2
CCCCNS(=O)(=O)c1ccc(Br)cc1N1CCC[C@H]1CO | nt | 10 | 1 | -1 | nt | 4 | nt | nt
Cc1ccc(N2CCN(c3ccc(C)cc3)C(CC(=O)O)C2=O)cc1 (stereo unspecified) | -11 | -6 | -8 | 0 | 3 | -82 | i | 6
CCC(=O)Nc1sc(C(=O)OC)c(C)c1C(=O)OC | -10 | 1 | 3 | 6 | -8 | nt | i | -13
Fc1cc(F)c2nc(N3CCOCC3)sc2c1 | 2 | -10 | 0 | 3 | 7 | -82 | i | -8
CCC1=C(OC(=O)N(CC)CC)N2C(=O)OC(=NCC(=O)OC)[C@]2(C)[C@H]2C1=CC[C@H]1C(=O)N(CC(=O)OC)C(=O)[C@H]12 | 2 | -6 | -2 | 2 | 0 | -7 | i | -1
COC(CNC(=O)c1cc(Sc2nnc(C)s2)nc2ccccc12)OC | -30 | -7 | 0 | 4 | -5 | 21 | i | -4
C=C1C(=O)O[C@H]2C[C@H]1[C@@H](OC(C)=O)C/C(C)=C/CC/C(C)=C\CC[C@]2(C)O | nt | -13 | -16 | -27 | nt | 81* | nt | nt
CCOc1ccc(C(=O)NCC(=O)OCC(=O)N2CCC(C)CC2)cc1 | 1 | -12 | -4 | 2 | 0 | nt | nt | -4
Cc1ccc(S(=O)(=O)N2CCN(C(=O)c3ccccc3)C2)cc1[N+](=O)[O-] | -15 | nt | 1 | 1 | -6 | -22 | i | -2
Cc1cccc(NC(=O)c2nc[nH]c2C(=O)N2CCN(c3ccccc3)CC2)c1 | nt | -14 | 9 | 2 | nt | -12 | nt | nt
COc1ccc(NC(=O)c2cc(C)no2)cc1Cl | nt | -8 | 1 | 2 | 14 | -5 | i | 5
O=C(O)C1OC2OC3(CCCCC3)OC2C2OC3(CCCCC3)OC12 (stereo unspecified) | 1 | nt | 0 | 5 | -6 | nt | i | -12
CN(C)Cc1ncccc1Oc1nc2cc(-c3cccc(Cl)c3)sc2c(=O)n1C | nt | -15 | 7 | 2 | nt | 18 | nt | nt
CCC(=O)NCCc1nc2cc(NC(=O)COc3ccccc3)ccc2n1C | -15 | -10 | 4 | 5 | 0 | -18 | i | -4
Cc1cc(CNC(=O)COC(=O)c2ccc(Cl)c(N)c2)cc(C)c1O | -7 | 18 | 4 | 6 | nt | -12 | i | nt
CCN(CC)C(=O)Oc1c(Cl)cc(Cl)c2cccnc12 | -7 | nt | -7 | -1 | -4 | 4 | i | -4
CCOc1ccc(CNC(=O)CCCOc2cc(=O)n(C)c3ccccc23)cc1 | nt | -15 | 9 | -5 | 3 | -22 | i | -3
CCNc1nc(NCC)nc(N/N=C/c2cc(OC)c(OC)c(OC)c2)n1 | -9 | nt | 5 | -1 | -7 | -12 | nt | -4
S=c1sc(SCCOc2ccccc2)nn1-c1ccccc1 | -2 | nt | 3 | 0 | 7 | -3 | i | 0
CCN(CC)CCOc1ccc2c(c1)C(=NO)c1cc(OCCN(CC)CC)ccc1-2 | 69 | -6 | 14 | 6 | 36 | i | i | -14
CCN1C=C(Cc2cccs2)C2=C(C1)C(c1cccs1)C(C#N)=C(N)O2 (stereo unspecified) | -10 | -10 | -15 | 0 | 67* | nt | i | 93* | eIF4H inh retest=58*;PABP FP inh retest=92*
Continued:
SMILES | CSC inhib | Yeast UUG start | MT1-MMP act inh | MT1-MMP act inh RFP | PABP FP inh | HIV Env fusion | Rce1 inh | eIF4H inh | others
CCN1C(=O)N(C)[C@@H](c2ccccc2)C(C(=O)OC)=C1C | -3 | 1 | 2 | -1 | 3 | 11 | i | -11
CN(C)CCCNC(=O)c1cc(C(=O)C2CCCCC2)c[nH]1 | 25 | -17 | 2 | 2 | -10 | -20 | i | -1
CC(NS(=O)(=O)c1ccc2c(c1)oc(=O)n2C)c1ccccc1 (stereo unspecified) | 0 | -9 | -25 | 1 | 65* | nt | i | 91 | eIF4H inh retest=39;PABP FP inh retest=122*
O=C(Nc1ccc(Cl)cc1)c1csc(-c2ccncc2)n1 | -7 | nt | 3 | -7 | 3 | -4 | i | -15
COc1ccc(Cn2c(SCc3cc(C)ccc3C)nc3cc(OC)c(OC)cc3c2=N)cc1 | 142* | 10 | -48 | -34 | -16 | 11 | i | -7
Cc1cccc(C=Nc2ccc3c4c(cccc24)CC3)c1O | nt | nt | -184 | 4 | -1 | 3 | i | 70 | eIF4H inh retest=-3;PABP FP inh retest=-1
O=[N+]([O-])c1ccc(N2CCOCC2)c([N+](=O)[O-])c1 | nt | -7 | -4 | 2 | nt | -60 | nt | nt
Cc1cccc(NC2=C(NCCO)C(=O)c3ccccc3C2=O)c1 | 18 | -13 | -3 | 6 | -3 | -4 | i | -10
O=C(CSc1nc(Nc2ccccc2)nc(N2CCOCC2)n1)Nc1cc(Cl)ccc1O | 51 | -12 | -3 | -11 | 7 | 36 | i | -2
COc1ccc(OC)c(N(CC(=O)N2CCCC2)S(=O)(=O)c2ccc(OC)c(OC)c2)c1 | -1 | -7 | 3 | 2 | 0 | -37 | i | -8
COc1ccc(OC)c(C2NC(=O)c3sc(=S)n(-c4ccccc4)c3N2)c1 (stereo unspecified) | -18 | -9 | 3 | 3 | 15 | -93 | i | 10
CCCCN(C)CCCNC(=O)Cn1cc2c(n1)-c1c(oc(C(=O)N3CCCC3)c1C)CC2 | nt | -9 | 1 | -1 | nt | -7 | nt | nt
N#Cc1cccc(C(c2nnnn2Cc2ccccc2)N2CCCC2)c1 (stereo unspecified) | -22 | -37 | -1 | -3 | 20 | nt | i | -5
O=C(CSc1ccc(-c2ccccc2)nn1)N1CCCc2ccccc21 | -5 | -9 | 0 | -1 | 12 | -3 | i | 1
COc1cccc(N2CCN(S(=O)(=O)c3ccc4ccccc4c3)CC2)c1 | nt | 3 | 19 | -6 | nt | -1 | nt | nt
O=C(Cc1ccccc1)Nc1cccc(-c2nc3ncccc3o2)c1 | 20 | -8 | 2 | -6 | 0 | -110 | nt | -10
Cc1nc2ccc(NS(=O)(=O)c3c(F)cccc3F)cc2s1 | -7 | -10 | -1 | -22 | nt | 5 | nt | nt
Cc1ccc(NC(=O)CCC(=O)O)cc1F | -6 | -13 | 3 | -2 | -2 | nt | i | -10
CN(C)CC/C=C1\c2cc(F)ccc2CSc2ccccc21 | 5 | nt | -5 | -6 | 5 | nt | i | 1
O=C(CN1C(=O)c2ccccc2S1(=O)=O)NCCSCc1cccc(Cl)c1 | -9 | 6 | 2 | 0 | 6 | 10 | i | 0
COc1ccc(-c2sc(Nc3ccccc3)n[n+]2-c2ccc(F)cc2)c(C)c1C | -8 | 10 | 5 | -3 | 6 | -54 | i | 10
CCCCN1C(=O)CCC(C(=O)O)C1c1ccc(OC)cc1 (stereo unspecified) | -4 | nt | 2 | 2 | 18 | 5 | i | -3
COc1cccc(NC(=S)N(CCN(C)C)Cc2cccs2)c1 | -1 | nt | 5 | 1 | 14 | -4 | i | 4

High-throughput results: PubChem BioAssay, several laboratories
